Source: PubChem (National Center for Advancing Translational Sciences (NCATS))
Rango-impB inh = qHTS Assay for Inhibitors of Rango (Ran-regulated importin-beta cargo) - Importin beta complex formation. Rango CFP/YFP FRET sensor + importin beta, 45 min. Potency, µM (doses to about 92.2 µM), without a hit: top-dose inhibition of complex formation. Importin subunit beta-1 (Homo sapiens), Q14974. 0.031% of 340,000 active; active = rising FRET ratio curve, often small or poorly fitted; inconclusive = mostly compound fluorescence or quenching in the first reads; inactive = flat curves in all reads;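 further: potency means the concentration at half of the fitted maximal effect; 0% = DMSO wells and 100% = buffer wells lacking importin beta; nearly all actives have a fitted effect of over 15% in size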
Target sequence (Q14974 whole entry, looked up): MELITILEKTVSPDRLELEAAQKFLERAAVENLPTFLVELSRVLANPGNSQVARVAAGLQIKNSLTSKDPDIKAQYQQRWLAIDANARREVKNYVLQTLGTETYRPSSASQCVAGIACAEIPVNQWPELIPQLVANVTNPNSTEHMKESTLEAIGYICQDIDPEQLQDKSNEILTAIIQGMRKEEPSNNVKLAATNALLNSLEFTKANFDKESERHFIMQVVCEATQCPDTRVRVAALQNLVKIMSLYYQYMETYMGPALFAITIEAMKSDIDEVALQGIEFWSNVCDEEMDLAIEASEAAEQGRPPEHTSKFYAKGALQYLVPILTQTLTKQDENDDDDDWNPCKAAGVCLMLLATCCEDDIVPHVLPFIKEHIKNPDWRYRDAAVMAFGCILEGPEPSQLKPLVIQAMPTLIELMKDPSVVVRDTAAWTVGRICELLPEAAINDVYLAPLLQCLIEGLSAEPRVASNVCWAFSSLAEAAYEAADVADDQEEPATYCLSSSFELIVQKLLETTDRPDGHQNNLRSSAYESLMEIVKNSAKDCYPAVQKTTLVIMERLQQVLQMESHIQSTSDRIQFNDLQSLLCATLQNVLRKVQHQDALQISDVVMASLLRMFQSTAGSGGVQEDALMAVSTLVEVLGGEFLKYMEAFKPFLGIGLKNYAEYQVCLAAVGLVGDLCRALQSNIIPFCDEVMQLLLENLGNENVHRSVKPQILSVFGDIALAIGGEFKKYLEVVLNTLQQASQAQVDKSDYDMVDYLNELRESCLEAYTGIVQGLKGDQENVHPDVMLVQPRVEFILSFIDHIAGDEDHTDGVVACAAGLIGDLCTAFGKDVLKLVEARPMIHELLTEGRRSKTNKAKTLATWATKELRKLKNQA
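FRET biosensor Rango (snurportin 1 IBB between N-terminal EYFP and C-terminal Cerulean), 50 nM in PBS/1 mM DTT/0.02% Tween-20/0.1% BSA, preincubated 5 min RT with compound; 0.125 microM importin beta added, 45 min RT, CFP/YFP FRET ratio read.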
miR-21 FLuc = qHTS Assay for Modulators of miRNAs and/orActivators of miR-21; 340,000 tested, under 10 active; Potency, µM (titrated, usually from 38.3 µM), for the others: at the top dose reporter change, positive = more light; AID 2288, 2010; HeLa miR-21 FLuc reporter, luciferase, 48 h; active = well fitted rising curve with a large enough effect; inconclusive = small, poorly fitted or top-dose-only effect; inactive = no such curve, though single readings can be large or run the other way;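 further: % of control where 0% means no effect; miR-21 action dims this reporter so a rising signal means less miR-21 action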
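HeLa cells stably expressing CMV-driven firefly luciferase with a downstream miR-21 binding sequence, endogenously expressing miR-21, were treated with titrations (up to about 40uM final) for 48 hours at 37 degree Celsius. Luciferase luminescence was read after lysis.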
GLA inh pH 4.5 = qHTS Assay for Inhibitors of Human alpha-Galactosidase at pH 4.5. Alpha-galactosidase A (Homo sapiens), P06280. purified enzyme, 4-MU-alpha-Gal fluorescence, pH 4.5. activity change, negative = inhibition, % at 105 µM. 230,000 tested, under 10 active. AID 1467, 2008; inconclusive = small, poorly fitted or top-dose-only inhibition, or a rising curve; inactive = flat fitted curve, though single readings scatter; no compound was filed as active;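 further: 0% = full activity with enzyme and -100% = basal without enzyme; dose as in the result columns while the protocol names 77 µM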
Rango release inh = qHTS Assay for Inhibitors of RanGTP induced Rango (Ran-regulated importin-beta cargo) - Importin beta complex dissociation | Snurportin-1 (Homo sapiens) + GTP-binding nuclear protein Ran (Homo sapiens) + Importin … | Biochemical FRET Rango-importin beta, RanGTP-induced dissociation | Potency, µM (doses to about 46.1 µM), for the others: at the top dose activity change, negative = inhibition | 0.071% of 340,000 active | AID 540253, 2011; active means falling FRET ratio curve, often poorly fitted, with flat reads before Ran was added; inconclusive means other falling curves, or compound fluorescence or quenching; inactive means flat or rising ratio curve;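 further: potency means the concentration at half of the fitted maximal effect; % of control where 0% means no effect; nearly all actives have a fitted effect of over 45% in size; -100% = wells without RanGTP and RCC1; the record marks most hits as doubtful in a second field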
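Two FRET readings bracket the reaction: one 5 min after compound meets Rango–importin beta, another 45 min after RanGTP-RCC1 (0.6 uM Ran, 0.2 uM RCC1, 2 mM GTP) is added. Only the second defines inhibition.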
* hit, by the source's call; ? = inconclusive; nt = no result given; & = joins results of further samples; [ ] = dose if it differs, or a comment. A portion of the library; count on the stated rates, not on these rows.

SMILES	Rango-impB inh	miR-21 FLuc	GLA inh pH 4.5	Rango release inh
O=C(O)/C=C/C(=O)Nc1ccc(C(=O)c2ccccc2)cc1	0.5%	14%	-25	6%
COc1ccc(NC(=S)Nn2cnnc2)c(OC)c1	-0.9%	0%	nt	-7%
Cc1ccc(NC(=O)CNC(=O)c2ccc(OC(F)F)cc2)cc1S(=O)(=O)N1CCCCCC1	-0.2%	nt	nt	17%
CC(C)CN(C(=O)COC(=O)c1ccc(Br)cc1)c1c(N)n(Cc2ccccc2)c(=O)[nH]c1=O	-0.7%	nt	nt	4%
Cc1cc(C)cc(-n2ncc3c2CCCC3NC(=O)C2(C(N)=O)CC2)c1 (stereo not given)	4.0%	?	nt	2%
Oc1c(CN2CCOCC2)ccc2ccccc12	0.9%	0%	1	2%
CC1Cc2ccccc2N1C(=O)C1CCCCN1S(=O)(=O)c1ccccc1 (stereo not given)	1.0%	-3%	1	-3%
COC(=O)C1=C(C)NC(=O)NC1c1ccc(OC(=O)c2ccco2)cc1 (stereo not given)	0.2%	-1%	4	3%
CCOc1ccccc1NC(=O)C(c1ccccc1)N1CCN(CC(=O)N2CCOCC2)CC1 (stereo not given)	3.6%	nt	nt	8%
Cc1ccc(C(=O)O)cc1-c1ccc(/C=C2/NC(=O)N(c3ccccc3)C2=O)o1	?	-25%	-4	?
Cc1ccc(NS(=O)(=O)c2ccc(C(=O)OCC(=O)Nc3cc(C)on3)cc2)cc1	-1.1%	-2%	5	15%
COc1ccc(C)cc1NC(=O)CN1C(=O)COc2ccc(S(=O)(=O)N3CCCCCC3)cc21	2.0%	-2%&-8%	nt	2%
CCCCN(CCNP(=O)(OCC)OCC)CP(=O)(OCC)OCC	-0.7%	-3%	3	2%
CCOC(=O)C(=O)N1CCC(Cc2ccccc2)CC1	2.0%	-1%	-1	10%
O=C(Cn1nc(-c2ccccc2)ccc1=O)NCCCN1CCOCC1	0.3%	1%	-15	1%
O=S(=O)(Cc1ccccc1)Nc1ccccc1Br	-3.8%	-11%	nt	0%
CCC(CC)c1nnc(NC(=O)C2CC(=O)N(C3CCCC3)C2)s1 (stereo not given)	5.4%	0%	nt	0%
O=C(Nc1ccccc1)N1CCSc2ccccc21	1.5%	-8%	-1	2%
COCCN(C(=S)Nc1cccc(OC)c1)C1CCN(C(C)C)CC1	?	-15%	-4	21%
Cc1cc(NS(=O)(=O)c2ccccc2)no1	4.7%	-1%	8	11%
O=C(Cc1ccc(NC(=O)C2CCCN(C(=O)C3CCCC3)C2)cc1)Nc1cccc(C(=O)N2CCCC2)c1 (stereo not given)	-2.3%	nt	nt	0%
Cn1cc(C(=O)N2CCCCC2)c(=O)c2cc(S(=O)(=O)N3CCCC3)ccc21	-0.3%	-1%	nt	11%
C/C(=N\NS(=O)(=O)c1ccc(C)c([N+](=O)[O-])c1)c1cccs1	-1.4%	-9%	-6	-4%
CC(C)n1nnnc1SCC(=O)NCc1ccco1	-1.5%	nt	nt	16%
CCN(C(=O)CSc1nc2ccccc2c(=O)n1CCOC)C1CCS(=O)(=O)C1 (stereo not given)	2.0%	?	4	10%

Entries of single compounds from above:
`Cc1ccc(NS(=O)(=O)c2ccc(C(=O)OCC(=O)Nc3cc(C)on3)cc2)cc1` reads Rango-impB inh: -1.1%; miR-21 FLuc: -2%; GLA inh pH 4.5: 5; Rango release inh: 15%
`COc1ccc(NC(=S)Nn2cnnc2)c(OC)c1` reads Rango-impB inh: -0.9%; miR-21 FLuc: 0%; GLA inh pH 4.5: nt; Rango release inh: -7%
`Oc1c(CN2CCOCC2)ccc2ccccc12` reads Rango-impB inh: 0.9%; miR-21 FLuc: 0%; GLA inh pH 4.5: 1; Rango release inh: 2%

Later entries:
SMILES	Rango-impB inh	miR-21 FLuc	GLA inh pH 4.5	Rango release inh
O=C(CSc1nc2[nH]ncc2c(=O)[nH]1)NCc1ccc(F)cc1	-0.9%	0%	-2	-2%
CCOCCCN(C(=O)Cn1nnc(-c2ccc(OC)c(OC)c2)n1)C(C(=O)NCC1CCCO1)c1ccc(F)cc1 (stereo not given)	-1.6%	-2%	nt	1%
CC(=O)NCCNc1nc2c(-c3cccc(C)c3)nnn2c2ccccc12	?	1%	nt	?
Cc1ccc(C(=O)NNC(=O)c2ccc3ncccc3c2)cc1	0.0%	1%	-4	1%
COc1ccc(C(=O)NC(=S)N2CCN(c3ccccc3OC)CC2)cc1	-3.9%	0%	nt	0%
O=C(CN(c1cccc(Cl)c1)S(=O)(=O)c1ccccc1)NN=C1CCCC1	-2.4%	-2%	1[21.1 µM]	12%
CC(C)NC(=O)C(=O)N/N=C/c1ccco1	-2.6%	-4%	-1	0%
CCc1ccc2[nH]c(=O)c(CN(CCN(CC)CC)C(=O)Nc3ccccc3OC)cc2c1	-4.6%	1%	-8	0%
O=C(OCc1c(-c2ccccc2)ncc2ccccc12)c1ccc(Cl)cc1Cl	-2.2%	nt	nt	6%
C=CCn1c(SCC(=O)Nc2sccc2C(N)=O)nc2sc(CC)cc2c1=O	-2.8%	28%	-6	6%
CN(/N=C/c1ccncc1)c1cnc2ccccc2n1	?	-44%	-20	-20%
CC(C)C(=O)COc1c2occc2cc2ccc(=O)oc12	1.8%	nt	nt	-5%
CC(C)CCN1CCN(Cc2cc(F)ccc2-n2cccn2)CC1CCO (stereo not given)	?	-3%	6	-8%
COc1ccccc1NC(=O)c1c(C)cc(=O)oc1C	-1.2%	-3%	-8	-19%
O=C(Cn1ccccc1=S)c1ccc(Cl)c(Cl)c1	3.9%	nt	nt	-6%
c1ccc(-c2noc(-c3ccco3)n2)nc1	3.1%	-6%	0	12%
COC(=O)c1cc(=O)n(Cc2ccc(F)cc2)c(=NCc2ccc(F)cc2)s1	4.8%	6%	-2	2%
COc1ccc(-n2c(Cc3cccn3C)nnc2SCC(=O)NCCc2ccccc2)cc1	1.1%	-4%	-1	8%
O=C1CCC/C=C\C[C@@H](CC(=O)N(CCO)Cc2ccccc2)C(=O)N[C@H](c2ccccc2)CO1	-0.3%	nt	nt	14%
Cc1noc(/C=C/N(C)C)c1S(=O)(=O)N1CCC(C(=O)Nc2ccc(Cl)cc2)CC1	?	-3%	nt	?
C/C(=C\C(=O)O)C12CC3CC(CC(C3)C1)C2	-2.0%	-13%	9	0%
Cc1ccc(S(=O)(=O)NC(=O)c2ccccc2F)cc1	0.3%	0%	nt	-10%
OCCNCCCCOc1ccc(OCc2ccccc2)cc1	6.5%	-53%	0	-13%
CCc1ccc(C(C(=O)NC2CCCCC2)N(C(=O)c2ccccn2)c2cccnc2)cc1 (stereo not given)	nt	-2%	7	nt
CCOC(=O)Cn1ncc2c(=O)oc3ccccc3c21	1.6%	0%	-1	12%

Continuation:
SMILES	Rango-impB inh	miR-21 FLuc	GLA inh pH 4.5	Rango release inh
CC(=O)Nc1ccc(NC(=O)C(C)OC(=O)C2(c3ccccc3F)CCCC2)cc1 (stereo not given)	-3.3%	nt	nt	3%
CCOC(=O)CNC(=O)CNC(=O)c1ccc(OC)cc1	-0.8%	1%	4	-12%
CC(CCc1ccccc1)NC(=O)N1CCOCC1 (stereo not given)	4.7%	-5%	1	-4%
COCCNC(=O)c1csc2c1CCCC2	0.8%	-10%	2	-8%
O=C(Nc1ccc(O)c2c(=O)cc(-c3cccc(Cl)c3)oc12)c1cccc(Cl)c1	6.1%	-1%	6	-7%
O=C(OCc1ccccc1C(F)(F)F)c1cc([N+](=O)[O-])ccc1N1CCOCC1	7.1%	-10%	nt	-12%
COc1ccc(NC(=O)c2cccc3c2C(=O)c2ccc(-c4cnc(OC)nc4)cc2S3(=O)=O)cc1	-1.1%	nt	nt	9%
NC(=O)NC(=O)COC(=O)CCCCCNS(=O)(=O)c1ccc2c(c1)OCCO2	-1.4%	-4%	1	-9%
CCOC(=O)N1CCN(C(=O)c2ccc3nc4ccc(Cl)cc4c(=O)n3c2)CC1	0.3%	-7%	5	0%
COc1ccc(CCNC(=O)c2cc(-c3cc(Cl)cc(Cl)c3)oc2C)cc1	-3.2%	0%	-8	3%
CCOC(=O)c1c(-c2ccc(C)o2)csc1NC(=O)CN1CCOCC1	-1.1%	-6%	-11	0%
CC(=O)N1CCN(Cc2nc3cc(NC(=O)c4ccc(Cl)cc4)ccc3n2C)CC1	4.6%	3%	-2	0%
Cc1nc2nc(SCC(N)=O)[nH]c2cc1Br	3.5%	-6%	1	4%
CCc1nnc(NC(=O)CCNC(=O)c2ccco2)s1	-0.4%	1%	nt	-4%
CCC(C)(C(=O)NC1CCCCC1)N(C(=O)c1ccccn1)c1ccc(C)cc1 (stereo not given)	0.6%	-1%	9	-19%
O=C(Nc1ccc(N2CCN(C(=O)c3ccccc3)CC2)c(Cl)c1)c1cccnc1	9.9%	30%	-9	-17%
CC(C)CCNC(=S)Nc1ccc2nc3n(c(=O)c2c1)CCCCC3	-3.6%	-12%	2	1%
O=C(c1ccc(CSc2nc3ccncc3[nH]2)cc1)N1CCCCC1	-1.9%	-23%	-3	36%
OC(COc1ccc(OCc2ccccc2)cc1)CN1CCOCC1 (stereo not given)	6.1%	-19%	-10	4%
CSc1nc(C)c(C(=O)Nc2ccccc2)c(C)c1C#N	1.6%	7%	1	-5%
C=CC[C@H](CC(=O)NCCO)C(=O)NC[C@@H](OC(=O)[C@@H](CC=C)CC(=O)OC(C)(C)C)c1ccccc1	-3.5%	nt	nt	-6%
CCOc1cc2[nH]c(=S)n(CCN3CCCCC3CC)c(=O)c2cc1OCC (stereo not given)	-1.0%	-8%	0	21%
COCCNC(=O)c1ccccc1NC(=O)Nc1ccccc1	-1.3%	-9%	7	-4%
CCOc1nc2c(c(=O)n(C)c(=O)n2C)n1Cc1ccccc1Cl	1.1%	1%	-2	2%
CCC(C)[C@H]1CNCCN1CCC12CC3CC(CC(C3)C1)C2 (stereo not given in full)	-1.3%	nt	nt	2%

Following part.
SMILES	Rango-impB inh	miR-21 FLuc	GLA inh pH 4.5	Rango release inh
COc1ccc(N2C(=O)CC(NNC(=O)c3cc(C)oc3C)C2=O)cc1 (stereo not given)	5.5%	1%	6	5%
O=C(NCCCN1CCOCC1)/C(=C/c1ccco1)NC(=O)c1ccccc1	-1.0%	0%	nt	-10%
Cc1ccc(OCc2ccc(C(=O)NN)o2)c([N+](=O)[O-])c1	3.2%	-13%	7	8%
O=C(NCCCn1ccnc1)c1cc(-c2cccnc2)nc2ccc(Br)cc12	2.6%	0%	4	1%
CC(C)OCCCn1c(SCC(=O)Nc2ccccc2C(F)(F)F)nc2nccnc2c1=O	-0.2%	-3%	nt	?
Cc1cccc(NC(=O)c2ccc3[nH]c(=O)c(=O)[nH]c3c2)n1	5.0%	-3%	nt	0%
Cc1ccc(SCC(=O)NCCCN2CCOCC2)cc1	0.0%	-7%	3	-15%
COc1ccc(CCNC(=O)c2ccc(CS(=O)Cc3ccc(Cl)cc3)o2)cc1OC (stereo not given)	0.9%	6%	nt	6%
Cc1occc1C(=O)N1N=C(C2CC2)CC1(O)C(F)(F)F (stereo not given)	-0.1%	-13%	-6	0%
COc1ccc(C2NCCC3(O)CCCCC23)c(OC)c1OC (stereo not given)	-1.5%	0%	nt	4%
O=S1(=O)C=C(SCCN2CCCCC2)c2ccccc21	-3.8%	-17%	5	26%
COc1cc2ccccc2cc1C(=O)Nc1ccc(C)cc1	?	-25%	nt	?
CCc1nn(C(C)C(=O)N2CCN(c3ccc(OC)cc3)CC2)c(=O)c2cc3occc3n12 (stereo not given)	3.3%	16%	nt	3%
COc1cc(CN2CCNC(=O)C2CC(=O)N(C)CCN2CCOCC2)cc(OC)c1 (stereo not given)	?	1%	nt	-17%

Quoted from the listing:
Rango release inh result of COCCNC(=O)c1ccccc1NC(=O)Nc1ccccc1 stands at -4%
Rango-impB inh result of c1ccc(-c2noc(-c3ccco3)n2)nc1 stands at 3.1%
